# gsp ag – gsp mutant agonism. AID 624287. Potency, µM (doses to about 76.9 µM), without a hit: at the top dose activation (cAMP increase), actives largely listed as activators. gsp mutant cells, cAMP HTRF, 30 min; control for the full effect not named in the record. 340,000 tested, 0.13% active; active = well fitted activation curve with a large enough effect; inconclusive = small, poorly fitted or top-dose-only effect, or another doubt; inactive = no such curve, though single readings can be large or run the other way; cell line not stated here;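 note: phosphodiesterase inhibitor Ro 20-1724 added with compounds to block cAMP breakdown; potency is the fitted concentration of half-maximal effect; nearly all actives have a fitted effect of over 60% in size; about a fifth of the inactives were tested at one dose only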
#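 Cells stably selected in G418 were plated at 2000/well, grown 16-24 hr, then given compounds in DMSO with the PDE inhibitor […] (300 uM solution added) for 30 min at 37C; cAMP was read by HTRF.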
# CtBP-E1A blk – inhibitors of CtBP/E1A interaction; AlphaScreen GST-E1A/His-CtBP binding, 1536-well; stronger effect = lower value; control for the full effect not named in the record; activity change, % (concentration not given with the values); 340,000 tested, 0.49% active; in the data active means activity change below about -65%; inconclusive means about -30% to -65%; inactive means above about -30%; note: % is set by controls: 0 for no effect and ±100 for the full control effect
#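 In 5 uL wells, 23 nL compound meets equimolar GST-E1A and His-CtBP (5X stock 125 nM each) for 2 h, 37 °C. Beads (5X, 50 ug/mL) then 1 h, 37 °C, dark.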
# Six1-Eya2 blk – Six1/Eya2 interaction inhibition; AlphaScreen GST-Six1/His-Eya2 binding, biochemical; stronger effect = lower value; control for the full effect not named in the record; AID 651725; activity change, % (concentration not given with the values); 360,000 tested, 0.56% active; Q15475+O00167; in the data active = activity change below about -65%; inconclusive = about -30% to -65%; inactive = above about -30%; note: % is set by controls: 0 for no effect and ±100 for the full control effect
# Target sequence (O00167 whole entry, looked up): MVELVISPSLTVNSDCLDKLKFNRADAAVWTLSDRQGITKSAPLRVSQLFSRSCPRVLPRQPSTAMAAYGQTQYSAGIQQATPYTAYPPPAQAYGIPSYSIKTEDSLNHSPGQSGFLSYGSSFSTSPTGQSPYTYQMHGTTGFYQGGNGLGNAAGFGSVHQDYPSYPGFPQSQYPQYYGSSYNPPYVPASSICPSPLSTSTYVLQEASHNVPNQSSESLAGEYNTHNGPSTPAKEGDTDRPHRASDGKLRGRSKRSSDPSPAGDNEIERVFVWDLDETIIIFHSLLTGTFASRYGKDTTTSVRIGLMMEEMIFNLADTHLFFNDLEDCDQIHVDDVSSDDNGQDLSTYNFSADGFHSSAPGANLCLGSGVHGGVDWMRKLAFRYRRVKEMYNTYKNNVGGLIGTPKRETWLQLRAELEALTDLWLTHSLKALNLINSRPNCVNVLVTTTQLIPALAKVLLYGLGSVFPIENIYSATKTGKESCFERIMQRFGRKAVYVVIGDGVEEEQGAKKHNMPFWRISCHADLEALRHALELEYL
# Target sequence (Q15475 whole entry, looked up): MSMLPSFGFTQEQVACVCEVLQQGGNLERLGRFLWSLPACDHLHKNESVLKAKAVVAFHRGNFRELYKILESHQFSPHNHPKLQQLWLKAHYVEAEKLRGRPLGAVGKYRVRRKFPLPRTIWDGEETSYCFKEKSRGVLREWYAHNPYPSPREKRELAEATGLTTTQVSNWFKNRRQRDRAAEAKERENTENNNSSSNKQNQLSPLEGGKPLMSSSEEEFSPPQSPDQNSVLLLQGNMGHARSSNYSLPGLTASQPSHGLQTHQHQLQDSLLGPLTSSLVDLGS
#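 Compounds are tested against tagged Six1 and Eya2 proteins bridged by glutathione donor and nickel acceptor beads; after a one-hour incubation at 37 °C without light, AlphaScreen emission is recorded.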
# gsp antag – antagonizes gsp, the McCune-Albright syndrome mutation; 340,000 tested, 0.4% active; Potency, µM (top dose mostly 76.9 µM), for inactives: top-dose activity change, negative = inhibition, most hits filed as inhibitors; gsp-mutant cells, cAMP HTRF, 30 min; control for the full effect not named in the record; active = falling curve of any shape with a large fitted effect; inconclusive = falling curve, mostly with a smaller effect; inactive = flat or rising curve; cell line not stated here;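 note: intracellular cAMP measured with PDE inhibitor Ro 20-1724 present during compound exposure; potency is the fitted concentration of half-maximal effect; % is set by controls: 0 for no effect and ±100 for the full control effect; nearly all actives have a fitted effect of over 65% in size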
#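 Cells in G418 medium, seeded 16-24 h, 37C; buffer exchange to DPBS + 1 mM CaCl2, 0.5 mM MgCl2, 0.05% BSA; cpds in DMSO + […] (300 uM stock), 30 min 37C; HTRF cAMP detection.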
# D2 potentiator – positive allosteric modulators of human D2 dopamine receptor; DiscoveRx D2 beta-arrestin cells, luminescence, 90 min; 100% = 57 uM dopamine signal; potentiation, % (concentration not given with the values); 360,000 tested, 0.23% active; AID 624464; active = potentiation of 50% or more; inconclusive = 30% to 50%; inactive = 30% or less;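 note: compound concentration not given in the record; tested on top of an EC20 dose of dopamine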
#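 PathHunter beta-arrestin assay in DiscoveRx D2 cells. Compounds were added with an EC20 of dopamine (50 nM final) for 90 min at 37 deg C. Luminescence was read 1 h after detection reagent, with 57 uM dopamine as the EC100 control.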
# D2 ag – human D2 receptor agonism in beta-arrestin assay; P14416; DiscoveRx PathHunter D2 beta-arrestin, luminescence, 90 min; 100% = 57 uM dopamine signal; activation, % (concentration not given with the values); 360,000 tested, 0.084% active; in the data active = activation above about 40%; inconclusive = about 15% to 40%; inactive = below about 15%; note: compound concentration not given in the record; the text of the record calls up to 30% inactive
#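 Agonist mode: compounds alone added to overnight-plated D2 PathHunter cells for 90 min at 37 C, with 57 uM final dopamine (EC100) defining full response. Beta-arrestin recruitment detected by chemiluminescent reagent, read after 1 h at ambient temperature.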
# Active calls of the source: *; ? = inconclusive; nt = no result given; [ ] = remark or other dose.
# Sample of the layout:
# Key to letters: A = gsp ag; B = CtBP-E1A blk; C = Six1-Eya2 blk; D = gsp antag; E = D2 potentiator; F = D2 ag
CC(C)(C)OC(=O)C[C@H]1C/C=C\C[C@H](CC(=O)NCCO)C(=O)NCCOC1=O
  A: 11%; B: nt; C: 6; D: 7%; E: -3; F: -0.2

COc1ccc(OC)c(-n2c(CN3CCC(C(N)=O)CC3)nc3ccccc3c2=O)c1
  A: 9%; B: 10; C: 1; D: 5%; E: 3; F: 0.1

CCOC(=O)C1=C(C)N=C2SC(C)C(=O)N2C1c1cccc(F)c1 (stereo not drawn)
  A: -34%[inhibitor]; B: -3; C: -1; D: -12%; E: 28; F: 3.1

COc1ccc(C)cc1Nc1n[n+](-c2ccccc2)c(-c2ccc(SC)cc2)s1
  A: nt; B: -5; C: -4; D: -9%; E: -11; F: -3.5

COc1ccccc1CNC(=O)COC(=O)[C@H](Cc1c[nH]c2ccccc12)NC(=O)c1cccs1
  A: -10%[15.4 µM]; B: 0; C: 3; D: -21%; E: -2; F: -3.7

# Results, from the first entry:
# Key to letters: A = gsp ag; B = CtBP-E1A blk; C = Six1-Eya2 blk; D = gsp antag; E = D2 potentiator; F = D2 ag
CC(C)(C)OC(=O)C[C@H]1C/C=C\C[C@H](CC(=O)NCCO)C(=O)NCCOC1=O
  A: 11%; B: nt; C: 6; D: 7%; E: -3; F: -0.2

COc1ccc(OC)c(-n2c(CN3CCC(C(N)=O)CC3)nc3ccccc3c2=O)c1
  A: 9%; B: 10; C: 1; D: 5%; E: 3; F: 0.1

CCOC(=O)C1=C(C)N=C2SC(C)C(=O)N2C1c1cccc(F)c1 (stereo not drawn)
  A: -34%[inhibitor]; B: -3; C: -1; D: -12%; E: 28; F: 3.1

COc1ccc(C)cc1Nc1n[n+](-c2ccccc2)c(-c2ccc(SC)cc2)s1
  A: nt; B: -5; C: -4; D: -9%; E: -11; F: -3.5

COc1ccccc1CNC(=O)COC(=O)[C@H](Cc1c[nH]c2ccccc12)NC(=O)c1cccs1
  A: -10%[15.4 µM]; B: 0; C: 3; D: -21%; E: -2; F: -3.7

CCN(C(=O)COC(=O)c1[nH]c(=O)[nH]c(=O)c1N)c1ccccc1
  A: 13%[15.4 µM]; B: 6; C: 10; D: -1%; E: -5; F: -1.1

COc1ccc(/C=C2/Sc3ccc(C(=O)NCCCN4CCOCC4)cc3NC2=O)cc1OC
  A: -16%[15.4 µM]; B: -25; C: -26; D: 7%; E: -7; F: 1.7

O=C(c1noc2c1CCCC2)N1CCN(Cc2ccccc2)CC1
  A: -18%; B: 7; C: 5; D: 0%; E: 3; F: 0.5

COc1cccc(N(CC(=O)NC2CCCC2)C(=O)Cn2nnc(-c3ccc(C)o3)n2)c1
  A: -4%[15.4 µM]; B: 0; C: -5; D: -11%; E: -7; F: -0.9

Cc1cccc(C)c1NC(=O)COn1nnc2ccc(C(F)(F)F)cc21
  A: 6%[15.4 µM]; B: 5; C: -2; D: -2%; E: 2; F: -1.5

Cc1ccccc1C(=O)OCC(=O)N(C)c1ccccc1
  A: 9%; B: 9; C: 27; D: 5%; E: 1; F: 1.6

O=C(COc1cccc(C(F)(F)F)c1)Nc1ccc(S(=O)(=O)N2CCCCC2)cc1
  A: -17%[15.4 µM]; B: -12; C: 0; D: -10%; E: 14; F: 1.8

COC(=O)c1ccccc1NC(=O)C1CCCN(c2nnc(-n3cccc3)s2)C1 (stereo not drawn)
  A: -6%; B: -4; C: -22; D: ?; E: 1; F: -0.2

CCOC(=O)C1=C(C)N=C2SC(C)C(=O)N2C1c1ccccc1 (stereo not drawn)
  A: ?; B: -3; C: -3; D: -4%; E: -7; F: -2.4

COc1ccc2cc[nH]c2c1
  A: -5%[15.4 µM]; B: 7; C: -23; D: 6%; E: -24; F: -4.9

COc1cc2nc(NC(=O)c3ccccc3)sc(=O)c2cc1OC
  A: 5%; B: -13; C: 0; D: 0%; E: -8; F: -5.9

CC1(C)CN(C(Cc2ccccc2)C(N)=O)C1=O (stereo not drawn)
  A: 20%; B: 2; C: 2; D: 11%; E: 5; F: 3.3

Fc1ccc(Oc2nnnn2-c2ccccc2)cc1
  A: 13%[15.4 µM]; B: 0; C: -1; D: -22%; E: -18; F: -2.2

COc1cc(/C=C2\SC(=S)N(CCC(=O)Nc3cccc(O)c3)C2=O)cc(OC)c1OC
  A: 8%[15.4 µM]; B: -15; C: ?; D: ?; E: 0; F: 2.3

COc1ccc(CNC(=O)CN(c2ccc(OC)cc2)S(=O)(=O)c2c(C)nn(C)c2C)cc1
  A: 6%[15.4 µM]; B: -1; C: 3; D: 2%; E: -22; F: 4.2

CCCNC(=O)C1CC(c2ccccc2[N+](=O)[O-])=NO1 (stereo not drawn)
  A: 11%; B: -2; C: -7; D: -3%; E: 0; F: -0.2

COc1ccc(CNC(=O)N2CCN(c3cccc(Cl)c3)CC2)cc1OC
  A: 16%[15.4 µM]; B: 0; C: -13; D: -13%; E: -4; F: 0.0

O=C(CSc1cccc[n+]1[O-])c1ccc(-c2ccccc2)cc1
  A: -6%; B: 3; C: 0; D: -9%; E: -3; F: -2.0

O=C(Nc1ccc(Oc2ccccc2)nc1)C1CCN(Cc2ccco2)CC1
  A: 4%[15.4 µM]; B: 0; C: 3; D: -14%; E: 5; F: -6.7

CN1C(=O)CSc2ccc(NC(=O)NCc3ccc(F)cc3)cc21
  A: -3%; B: nt; C: 2; D: -7%; E: -2; F: -0.8

C[C@@H]1CN([C@H](C)CO)S(=O)(=O)c2ccc(-c3ccc(C#N)cc3)cc2O[C@H]1CN(C)C(=O)Nc1cc(F)ccc1F
  A: 5%; B: 0; C: -6; D: nt; E: nt; F: 3.7

COc1ccc(NC(=O)N/C=C/c2ccco2)cc1
  A: ?; B: -7; C: -7; D: 2%; E: -2; F: 1.1

O=C(CSc1nnc(CNc2ccc(F)cc2)n1Cc1ccco1)NC1CC1
  A: 9%; B: -1; C: -3; D: -17%; E: -16; F: 0.8

COc1cccc(NC(=O)NC2CCCCC2C)c1 (stereo not drawn)
  A: -28%; B: -1; C: -8; D: 9%; E: -8; F: 0.3

COc1cccc(NC(=S)NNC(=O)Cn2nc([N+](=O)[O-])cc2C)c1
  A: -66%[inhibitor]; B: -12; C: 0; D: -5%; E: -10; F: 3.5

CCOC(=O)c1c(C)[nH]c(C(=O)OCC(=O)N2CC(C)OC(C)C2)c1C (stereo not drawn)
  A: ?; B: -1; C: -3; D: 0%; E: -11; F: -3.3

Cc1ccccc1C(=O)N1CCC(n2nccc2NC(=O)CCOc2ccccc2)CC1
  A: -45%[inhibitor]; B: -1; C: 8; D: 6%; E: 11; F: -2.0

O=C(c1ccc(C(F)(F)F)cc1)N1CCC(=O)N(C(COCc2ccc(C(F)(F)F)cc2)Cc2ccccc2)CC1 (stereo not drawn)
  A: ?; B: -2; C: -17; D: -4%; E: -3; F: -0.9

COc1ccccc1NC(=S)N1CC(C)OC(C)C1 (stereo not drawn)
  A: 11%; B: nt; C: 5; D: -9%; E: -3; F: -3.5

CCOC(=O)C1=C[C@@H](C2CCCCC2)N(S(=O)(=O)c2ccc([N+](=O)[O-])cc2)[C@H]1c1ccccc1
  A: nt; B: -27; C: ?; D: nt; E: 12; F: 5.8

CS/C(=N\S(=O)(=O)c1ccc(Cl)cc1)c1ccccc1
  A: -4%; B: 2; C: 2; D: -6%; E: 4; F: -0.7

NC(=O)c1ccc(N=C2C(=O)Nc3ccc([N+](=O)[O-])cc32)cc1
  A: 2%; B: nt; C: -9; D: 10%; E: -4; F: -5.5

CCOC(=O)C1=C(N)n2c(s/c(=C\c3ccncc3)c2=O)=C(C(=O)OCC)C1c1ccncc1 (stereo not drawn)
  A: 17%[15.4 µM]; B: 2; C: 9; D: -25%; E: -14; F: -3.5

O=C(NNC(=O)c1c(F)cccc1F)c1ccccc1OC(F)(F)F
  A: -6%[15.4 µM]; B: -2; C: 0; D: 6%; E: -7; F: -3.3

CC(=O)Nc1c(-c2ccc(F)cc2)nc2ccccn12
  A: -3%; B: 3; C: -8; D: 2%; E: -4; F: -2.6

CC1(C)C(=O)Nc2ccccc2N1C(=O)COC(=O)c1cccs1
  A: 14%[15.4 µM]; B: -3; C: -12; D: 6%; E: -19; F: -1.1

Cc1ccsc1CN(C)CC(=O)NCC(=O)Nc1ccc(F)cc1
  A: ?; B: nt; C: 5; D: 14%; E: -3; F: -1.5

O=c1[nH]c2ccc(S(=O)(=O)Nc3ccc(Cl)cc3)cc2o1
  A: 1%; B: 6; C: 8; D: 2%; E: 11; F: 1.4

CCOC(=O)c1cnc(-n2nc(C)cc2C)nc1N1CCOCC1
  A: -25%; B: -22; C: -10; D: 7%; E: -11; F: 3.4

Cc1cc(C)c(S(=O)(=O)Nc2nnc(CC(C)C)s2)c(C)c1
  A: ?; B: 0; C: 13; D: ?; E: 1; F: 2.1

NC1=C(O)C(=O)C(c2ccccc2)O1 (stereo not drawn)
  A: 6%; B: 10; C: 6; D: 8%; E: -4; F: -2.6

CC1CCCCC1NC(=O)COC(=O)c1ccc2ccccc2n1 (stereo not drawn)
  A: 30%; B: 2; C: -1; D: -6%; E: 1; F: -5.7

CC(C)N1CCN(c2ccc(S(=O)(=O)N3CCOCC3)cn2)CC1
  A: -26%; B: -7; C: -14; D: 8%; E: 0; F: -4.1

O=C(O)CC(NC(=O)c1sc2ccccc2c1Cl)c1ccc(OC2CCCC2)cc1 (stereo not drawn)
  A: 33%[15.4 µM]; B: 6; C: 3; D: 19%; E: -3; F: -2.0

NC(=O)C1CCN(c2oc(/C=C/c3ccccc3)nc2S(=O)(=O)c2ccccc2)CC1
  A: ?; B: 0; C: 11; D: ?; E: -3; F: 1.0

# More results:
# Key to letters: A = gsp ag; B = CtBP-E1A blk; C = Six1-Eya2 blk; D = gsp antag; E = D2 potentiator; F = D2 ag
O=C(CSc1nnc(-c2ccccn2)n1Cc1ccco1)c1ccc(-c2ccccc2)cc1
  A: 10%; B: -8; C: -20; D: -14%; E: -11; F: -0.8

O=C(COc1ccc(S(=O)(=O)NCc2ccccc2)cc1Cl)N1CCOCC1
  A: -45%; B: 10; C: 6; D: 5%; E: -5; F: -3.0

COc1ccccc1/C=C1\CCC(C2CCCC2)C1=O (stereo not drawn)
  A: -12%; B: nt; C: 10; D: -8%; E: -4; F: 1.6

O=S(=O)(c1ccc(F)cc1)N1CCN(C(=S)NC2CC2)CC1
  A: ?; B: 18; C: 13; D: ?; E: -1; F: -2.5

Cc1cc(C)c(CN2CCN(CCCn3cnc(C(=O)Nc4ccc(C)c(C)c4)n3)CC2)c(C)c1
  A: nt; B: -18; C: -16; D: 4%; E: nt; F: 1.7

O=C(CC(=O)Nc1ccccc1C(=O)O)NNC(=O)Cc1ccccc1
  A: -9%[15.4 µM]; B: 3; C: 5; D: 9%; E: 2; F: -0.3

NS(=O)(=O)c1ccc(CCNC(=O)C2CCN(S(=O)(=O)c3ccccc3)CC2)cc1
  A: 17%[15.4 µM]; B: -4; C: -4; D: 3%; E: -3; F: -2.8

Cc1csc(NC(=O)Cc2c(F)cccc2Cl)n1
  A: -16%; B: -1; C: 1; D: -3%; E: -2; F: -0.7

# Screens as filed in PubChem.
